# Sa ugtP lethal – compounds lethal to S. aureus RN4220 ugtP deletion mutant; OD600 growth, 16 h; some inactives read as strong as hits; growth inhibition, % (no concentration beside the values); 330,000 compounds, 0.54% hits; AID 1259309;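 active means z-score under -3 and OD600 up to 0.15 on both plates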;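 further: plate controls were untreated wells for no effect and antibiotic for full effect; wells of about 80 µL received 100 nL stock; the first replicate is given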
# Autofluor counter – flagged as autofluorescent in microsphere protease counterscreen; 360,000 compounds, 3.1% hits; fluorescence intensity (concentration not given with the values); AID 624483; compound autofluorescence counterscreen, microsphere flow cytometry; hits give high values;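 active means at least 3 SD above the mean of all compounds, about 16000 in these data; inconclusive means too few beads counted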;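 further: 100 nL of 1 mM stock went into each well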
# Mtb hypoxia inh – inhibitors of hypoxia-regulated fluorescent reporter in Mycobacterium tuberculosis; 300,000 compounds, 0.1% hits; fluorescence inhibition, % (no concentration beside the values); AID 1159583; M. tuberculosis hypoxia-regulated fluorescent reporter, fluorescence;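 active means 35 to 45% if threefold the growth effect, above 45% if 1.5-fold the growth effect; inactive means the rest, general growth blockers included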;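 further: wells of about 50 µL received 100 nL stock; 0% = vehicle wells and 100% = reference inhibitor wells; whole bacteria with a GFP reporter of the hypoxia response; strong numbers were not always called active; many hits fall short of the cut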
# Sa RN4220 lethal – kills Staphylococcus aureus RN4220; S. aureus RN4220 growth, OD600, 16 h; inhibition, % (concentration not given with the values); 330,000 compounds, 0.33% hits; AID 1259311;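 active means z-score of -3 or lower and OD600 up to 0.18 on both plates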;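 further: plate controls were untreated cells for no effect and reference antibiotic for full effect; stock transfer was 100 nL into about 80 µL; one replicate is shown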
# PrP UTR inh – suppresses PrP 5' UTR mRNA reporter expression | AID 488862 | inhibition, % (no concentration beside the values) | 340,000 compounds, 0.35% hits | cell-based PrP 5' UTR mRNA reporter, plate reader;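 active means every replicate at 50% or more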;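 further: 0 = median of the neutral control wells; tested in H4 reporter cells; numbers are from one replicate; inactives centre near -14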
# BJeLR viability – kills HRASV12-expressing BJeLR cells | BJeLR (HRASV12) viability, CellTiter-Glo ATP luminescence, 48 h; reference of the scale not given here | inhibition, % (concentration not given with the values) | 300,000 compounds, 0.17% hits | AID 1554;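 active means replicate mean above 50%; inconclusive means above 50% but judged a plate artefact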;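 further: 50 nL library stock added to about 25 µL; numbers are from one replicate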
# Mtb hypoxia inh growth – recorded beside Mtb hypoxia inh, whose call it bears; growth inhibition, %; measured here: M. tuberculosis growth (absorbance);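 0% = vehicle and 100% = reference antibiotic; read after six days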
# An asterisk follows results filed as active; u = inconclusive; x = no result given.
SMILES,Sa ugtP lethal,Autofluor counter,Mtb hypoxia inh,Mtb hypoxia inh growth,Sa RN4220 lethal,PrP UTR inh,BJeLR viability
COc1ccc(-n2c(SC)nc3sc4c(c3c2=O)CCN(C)C4)cc1,24,3666,3,6,8.8,-3,21
COc1ccc(C2c3sc(=O)[nH]c3SC3C4CCC(C4)C23)cc1OC (stereo unspecified),-8,2778,x,x,-3.4,-5,-4
CSCCC(NC(=O)c1ccccc1Br)C(=O)NNC(=O)c1cc(C)oc1C (stereo unspecified),1,4150,4,4,2.5,-16,x
COc1cccc(NC(=O)C2CCCN(S(=O)(=O)c3ccc(-n4cnnn4)cc3)C2)c1 (stereo unspecified),-4,4278,x,x,1.6,-20,0
O=C(COc1ncnc2ccccc12)NC(=O)NCc1ccccc1,-2,16480*,6,5,0.2,-14,3
CCn1nc(C)c(CNC(=O)CC2C(=O)NCCN2CC(C)C)c1C (stereo unspecified),9,3493,-2,-4,1.7,-16,-11
COC(=O)CSCC(=O)Nc1nnc(-c2ccccc2C)s1,6,2380,16,5,0.7,-15,-4
COc1ccc(Cc2nnc(SCC(=O)N(C)c3ccccc3)o2)cc1,3,6953,5,3,-1.1,-25,5
COc1ccc(-n2cc(CNC3CCN(C)CC3)c(-c3cccc(F)c3)n2)cc1,-2,2975,x,x,-4.7,-4,6
Cc1ccc(C)c(NC(=S)N2CCN(c3cccc(C(F)(F)F)c3)CC2)c1,-5,8372,10,13,1.6,-19,0
Cc1ccc(S(=O)(=O)/N=C(\CSC(N)=O)Nc2ccccc2)cc1,x,4065,x,x,x,-30,-6
CC(=O)N(C)c1ccc(NC(=S)Nc2cccc3ccccc23)cc1,-1,2498,-7,8,-2.3,-6,-1
O=C1CCCN1c1ccc(S(=O)(=O)N2CCCCC2)cc1,6,5512,1,4,2.8,-16,-6
COC(=O)COc1ccc(S(=O)(=O)Nc2ccc3c(c2)OCCO3)cc1Cl,25,20964*,3,1,1.8,11,-3
Cc1sc2ncn(CC(=O)N(CC(=O)NC3CCCC3)Cc3cccs3)c(=O)c2c1C,-2,11459,8,6,4.3,-8,-4
O=C(Nc1ccn([C@H]2CC[C@@H](CO)O2)c(=O)n1)c1ccccc1,-2,4344,-5,8,-3.3,-4,1
CCOC(=O)c1nn(C)c(=S)n(C)c1=O,-1,3994,2,14,1.7,7,x
Fc1ccccc1OCCSc1ncnc2nc[nH]c12,0,2554,-2,1,-0.9,-25,0
COC(=O)c1ccccc1S(=O)(=O)NNC(=O)C1COc2ccccc2O1 (stereo unspecified),12,u,14,-5,0.8,0,x
CC(=O)/C(N=Nc1ccc2c(c1)OCO2)=C(\C)O,3,2361,16,5,14,-59,4
Cc1c(Cl)cc(-n2cnnn2)cc1[N+](=O)[O-],32,4031,-2,15,37,-8,3
CCOc1cccc2sc(N(CCCN(C)C)C(=O)c3ccc(S(=O)(=O)N(C)Cc4ccccc4)cc3)nc12,-13,6363,14,4,-6.4,3,-5
CON=CC(=NNc1ccc(OC)cc1)C(=O)c1ccc(F)cc1,5,x,3,0,2.9,x,x
CCn1nc(C)c(C=NNC(=O)Cn2nnc(N)n2)c1C,3,x,4,2,2.8,x,x
Cc1cc(=O)[nH]c(N/N=C/c2ccc3c(c2)OCCO3)n1,x,4920,x,x,x,12,-4
COc1ccc(C2CC(=O)C3=C(C2)NC(C)=C(C#N)C3c2ccc(N(C)C)cc2)cc1 (stereo unspecified),10,2844,0,5,1.9,2,-7
O=C(O)c1nn(CCOc2ccc(Br)cc2)c(=O)c2ccccc12,-7,5579,5,3,14,-20,-5
O=C(COC(=O)c1ccccn1)Nc1cccc2ccccc12,3,5520,0,5,7.1,-3,8
O=C(Nc1cccc(N=Cc2cc(Cl)cc(Br)c2O)c1)c1ccco1,15,9486,6,7,-4.2,-21,-1
Cc1coc2cc3oc(=O)c(CC(=O)N[C@@H](CC(C)C)C(=O)O)c(C)c3cc12,12,3404,10,7,1.1,-21,-8
O=C(CN(C(=O)c1csnn1)c1ccc2c(c1)OCCO2)NCc1ccc(F)cc1,13,4994,10,7,2.7,-18,-14
O=C(COC(=O)CCC(NC(=O)OCc1ccccc1)C(=O)OCC(=O)Nc1ccccc1)Nc1ccccc1 (stereo unspecified),8,2578,4,-14,-11,-4,-2
COc1ccc(C(=O)Nc2ccc([N+](=O)[O-])cn2)cc1OC,-3,2074,10,7,3.7,-8,-25
CCc1ccccc1NC1c2ccccc2C(=O)N1c1cccnc1 (stereo unspecified),7,3964,x,x,3.4,-41,7
CCN(CC)CCN(C(=O)CCS(=O)(=O)c1ccccc1)c1nc2cc(OC)c(OC)cc2s1,2,6222,4,4,0.9,-24,2
O=C1NNC(=O)C2C3C=CC(C4CC34)C12 (stereo unspecified),11,6471,11,5,2.1,-32,-6
CCCCN(C(=O)C1CCCC1)c1c(N)n(CC(C)C)c(=O)[nH]c1=O,-3,3082,-3,-4,2.0,-8,x
O=C(O)c1ccc(CNC(=S)Nc2ccccc2)cc1,-2,4079,-3,7,0.5,-23,12
CCN(C[C@H]1N[C@@](Cc2ccccc2)(C(=O)OC)[C@H]2C(=O)N(C)C(=O)[C@@H]12)S(=O)(=O)c1ccc(OC)cc1,5,3830,4,2,3.1,-23,x
O=C(CCS(=O)(=O)c1cc(Br)cc2c1N(C(=O)C1CC1)CC2)NCc1ccco1,-9,4117,x,x,-3.7,-29,x
CCN1C(=O)CS/C1=N\S(=O)(=O)c1ccc(Cl)cc1,x,3176,x,x,x,-11,-13
CN(Cc1c(C(=O)N/N=C/c2cccc(O)c2)nnn1-c1nonc1N)c1ccccc1,x,4593,x,x,x,-20,6
O=C1CC(SCCc2nc3ccccc3[nH]2)C(=O)N1c1ccc(Cl)cc1 (stereo unspecified),-2,2341,-9,2,0.7,-4,-1
CCCCn1c(O)c(C=NCCCN(CC)CC)c(=O)[nH]c1=O,1,3403,7,5,6.5,-1,-3
CN(C)c1ccc(C2(c3ccc(N(C)C)cc3)OC(=O)c3cc(N)ccc32)cc1,20,3672,-12,-10,-0.1,0,-3
CSc1ncccc1C(=O)Nc1ccc(S(=O)(=O)N2CCCC2)cc1,-1,8875,8,5,0.3,-27,x
Cc1c(/C=N/Nc2ccc(C(=O)O)cc2)c2ccccc2n1C,x,3735,x,x,x,-32,3
C=CCn1c(SCCOc2ccc(OC)cc2)nnc1C(CO)NC(=O)c1ccc(OC)cc1 (stereo unspecified),5,16235*,-1,10,3.0,-10,-3
COc1ccc(C2C=CCN(C(=O)Nc3ccccc3-c3ccccc3)CC(=O)N2Cc2ccc(F)cc2)cc1 (stereo unspecified),9,x,5,9,4.3,x,x
CC(NC(=O)N1CCN(c2ccccc2F)CC1)c1ccc(F)c(F)c1 (stereo unspecified),6,3237,2,-2,-1.2,-24,-3
S=c1[nH]nc(-c2cccs2)n1Cc1ccccc1,6,3961,2,7,0.9,-12,4
Cc1ccc(S(=O)(=O)N/N=C/c2cc(Br)ccc2O)cc1,x,3527,x,x,x,-48,1
Cc1c(C(=O)C(=O)NCCC2=CCCCC2)c2ccccc2n1C,-1,1969,10,3,2.5,-17,-1
CCCCC1(CC(=O)OC)C(=O)N(c2ccccc2)N(c2ccccc2)C1=O,14,2639,15,13,2.8,-1,-17
CCOC(=O)CN(c1ccccc1C)S(=O)(=O)c1ccc(Cl)cc1,3,4890,-3,3,3.2,-15,4
Cc1cccc(-n2ncc3c(N(CCO)CCO)ncnc32)c1,5,5336,10,8,1.6,-66,9
OC(CNCC(c1ccc(Cl)cc1Cl)c1c[nH]c2ccccc12)c1ccccc1 (stereo unspecified),97*,4064,-3,6,100*,-25,7
C=CCN1CCN(C(=O)c2c(-c3ccccc3)noc2C)CC1,10,6232,-1,1,0.1,-27,-4
Clc1cccc(CSc2nnc(-c3c[nH]c4ccccc34)o2)c1,-7,4543,6,14,3.7,-11,5
Cc1c(C(=O)Nc2cccc(C(F)(F)F)c2)oc2ccc(S(=O)(=O)N3CCOCC3)cc12,-13,15416,1,5,-2.5,-7,x

# Pulled by compound from the list above (five):
SMILES,Sa ugtP lethal,Autofluor counter,Mtb hypoxia inh,Mtb hypoxia inh growth,Sa RN4220 lethal,PrP UTR inh,BJeLR viability
O=C(COc1ncnc2ccccc12)NC(=O)NCc1ccccc1,-2,16480*,6,5,0.2,-14,3
S=c1[nH]nc(-c2cccs2)n1Cc1ccccc1,6,3961,2,7,0.9,-12,4
CON=CC(=NNc1ccc(OC)cc1)C(=O)c1ccc(F)cc1,5,x,3,0,2.9,x,x
CCCCn1c(O)c(C=NCCCN(CC)CC)c(=O)[nH]c1=O,1,3403,7,5,6.5,-1,-3
O=C(CCS(=O)(=O)c1cc(Br)cc2c1N(C(=O)C1CC1)CC2)NCc1ccco1,-9,4117,x,x,-3.7,-29,x

# Following part:
SMILES,Sa ugtP lethal,Autofluor counter,Mtb hypoxia inh,Mtb hypoxia inh growth,Sa RN4220 lethal,PrP UTR inh,BJeLR viability
CC(C)c1cc(C(=O)Nc2cc(Cl)ccc2O)no1,-4,8360,10,7,3.5,-59,5
c1cncc(-c2nnc(-c3cccnc3)nn2)c1,-2,3963,2,6,5.3,-36,-10
CCCCn1ccnc1C,5,3930,-3,-8,3.2,-10,-1
Cn1cccc1C(=O)NCC1COc2ccccc2O1 (stereo unspecified),11,5872,9,0,2.5,-68,x
Cc1ccc(NC(=O)CN2C(=O)NC(C)(c3ccc(Cl)cc3)C2=O)cc1S(=O)(=O)N1CCOCC1 (stereo unspecified),5,2568,4,8,-11,-7,-12
O=S(=O)(Nc1ccc(Oc2ncccn2)c(Cl)c1)c1ccc(Cl)cc1,-5,4695,3,5,6.6,1,-5
COc1cccc(N2C(=O)NC(=O)/C(=C\c3ccc([N+](=O)[O-])s3)C2=O)c1,1,4932,12,-12,5.0,-18,x
O=C(CN1C(=O)NC2(CCCC2)C1=O)NCCC1=CCCCC1,0,2513,x,x,4.5,-18,5
Cc1cc(C)nc(NC(=O)C(C)N2C(=O)c3ccccc3C2=O)n1 (stereo unspecified),4,9043,1,4,2.1,-18,14
O=C(/C=C/c1ccc(S(=O)(=O)N2CCOCC2)cc1)N(CCO)Cc1ccccc1,2,4130,-5,2,2.3,-8,3
CC(O)CC(C)O (stereo unspecified),5,5831,5,8,4.0,-13,x
CC(C)Oc1cccc(C(=O)Nc2ccc(Br)cc2F)c1,3,1886,3,2,-1.8,-101,-5
Cc1nnc(SCC(=O)NCc2cccs2)[nH]c1=O,4,5694,-3,-2,1.7,-3,-5
CCCCS(=O)(=O)Nc1ccc2c(c1)ncn2C1CCCCC1,5,5061,5,14,2.2,8,-2
Clc1ccc(C#Cc2cccnc2)cc1,-4,4006,13,7,14,-32,-3
Cc1ccccc1Nc1c([N+](=O)[O-])cncc1[N+](=O)[O-],-7,3259,4,-2,12,8,-16
O=C(NC(=S)Nn1cnnc1)c1ccc(F)cc1Cl,-5,3593,-9,-3,2.7,-21,-3
Cc1cccc(N2C(=O)NC(=O)C3(Cc4cc(C)ccc4N(C)C3)C2=O)c1 (stereo unspecified),-4,4168,x,x,4.6,-40,2
Cc1ccc(OC(=O)NC2CCS(=O)(=O)C2)cc1C (stereo unspecified),-3,23723*,-2,3,4.8,-18,5
O=c1cc(CN2CCN(c3ccccc3O)CC2)nc2sccn12,-4,4743,x,x,-3.5,-8,-3
Cc1ccc(NC(=O)C2CCCN(S(=O)(=O)c3c(C)noc3C)C2)cc1 (stereo unspecified),1,4048,-2,-1,2.4,-20,1
CC1(c2nnc(Cc3ccccc3)o2)CC(c2ccccc2)=NO1 (stereo unspecified),-9,4043,7,5,3.5,-15,1
Cc1onc(-c2ccccc2)c1C(=O)c1c[nH]c(C(=O)NCc2ccncc2)c1,-8,4173,-17,2,-0.2,2,-4
Cc1ccc(-n2nc3c(c2NC(=O)c2c(-c4ccccc4Cl)noc2C)CSC3)cc1,6,x,10,1,19,x,1

# Compound activity deposited in PubChem BioAssay by several laboratories.

# An unsorted share of the library; overall some 3.9% were active at least once.
